TRPML1 agonist: qHTS for Agonists of the Human Mucolipin Transient Receptor Potential 1 (TRPML1). Mucolipin-1 (Homo sapiens), Q9GZU1. TRPML1-expressing cells, Ca2+ dye fluorescence, FDSS; host cell line not named in the record; reference of the full effect not given here. hit rate 0.12% among 410,000. activation, % (no concentration beside the values); in the data active = activation above about 50%; inconclusive = about 30% to 50%; inactive = below about 30%; note: 0% is about no effect; the text of the record puts the active cut at 80%
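Cells: TRPML1-DL, 1X Tet inducer, ~16 h at 37 degrees C/5% CO2. Dye: ABD Ca8 no-wash + quencher, 45-90 min RT. Read: 10 s baseline, compound add, 110 s agonist phase; 54-4 EC80 (4uM final), 110 s antagonist phase.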
CtBP-E1A blk: qHTS Assay for Inhibitors of the CtBP/E1A Interaction | CtBP / adenovirus E1A interaction (AlphaScreen) | hit rate 0.49% among 340,000 | activity change, % (no concentration beside the values) | AlphaScreen GST-E1A/His-CtBP binding, 1536-well; active compounds read low; control for the full effect not named in the record; in the data active means activity change below about -65%; inconclusive means about -30% to -65%; inactive means above about -30%; note: % is set by controls: 0 for no effect and ±100 for the full control effect
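Homogeneous bead-based format: GST-tagged E1A captured on glutathione donor beads, His-tagged CtBP on nickel acceptor beads; compounds precede bead addition by 2 h at 37 °C.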
Six1-Eya2 blk: qHTS Assay for Inhibitors of the Six1/Eya2 Interaction | AlphaScreen GST-Six1/His-Eya2 binding, biochemical; active compounds read low; control for the full effect not named in the record | activity change, % (concentration not given with the values) | hit rate 0.56% among 360,000 | AID 651725, 2012; in the data active = activity change below about -65%; inconclusive = about -30% to -65%; inactive = above about -30%; note: % is set by controls: 0 for no effect and ±100 for the full control effect
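GST-Six1 + His-Eya2 (5X stock: 250/500 nM); Tris pH 8.0, 300 mM NaCl, 0.05% BSA, 0.02% Tween 20; GSH donor/Ni acceptor beads; 1 h 37 °C dark; AlphaScreen readout.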
TRPV1 PAM: HTS Assay for Compounds that Act as Potentiators of the Vanilloid Receptor 1; Transient receptor potential cation channel subfamily V member 1 (Homo sapiens), Q8NER1; TRPV1-expressing cells, Fluo-8 calcium influx, capsaicin EC20 potentiation; host cell line not named in the record; control for the full effect not named in the record; potentiation, % at 8.33 µM; hit rate 0.02% among 320,000; AID 540277, 2011; active means potentiation above 80%; inconclusive means 30% to 80%; inactive means below 30%; note: 0% is about no effect
Target sequence (Q8NER1 whole entry, looked up): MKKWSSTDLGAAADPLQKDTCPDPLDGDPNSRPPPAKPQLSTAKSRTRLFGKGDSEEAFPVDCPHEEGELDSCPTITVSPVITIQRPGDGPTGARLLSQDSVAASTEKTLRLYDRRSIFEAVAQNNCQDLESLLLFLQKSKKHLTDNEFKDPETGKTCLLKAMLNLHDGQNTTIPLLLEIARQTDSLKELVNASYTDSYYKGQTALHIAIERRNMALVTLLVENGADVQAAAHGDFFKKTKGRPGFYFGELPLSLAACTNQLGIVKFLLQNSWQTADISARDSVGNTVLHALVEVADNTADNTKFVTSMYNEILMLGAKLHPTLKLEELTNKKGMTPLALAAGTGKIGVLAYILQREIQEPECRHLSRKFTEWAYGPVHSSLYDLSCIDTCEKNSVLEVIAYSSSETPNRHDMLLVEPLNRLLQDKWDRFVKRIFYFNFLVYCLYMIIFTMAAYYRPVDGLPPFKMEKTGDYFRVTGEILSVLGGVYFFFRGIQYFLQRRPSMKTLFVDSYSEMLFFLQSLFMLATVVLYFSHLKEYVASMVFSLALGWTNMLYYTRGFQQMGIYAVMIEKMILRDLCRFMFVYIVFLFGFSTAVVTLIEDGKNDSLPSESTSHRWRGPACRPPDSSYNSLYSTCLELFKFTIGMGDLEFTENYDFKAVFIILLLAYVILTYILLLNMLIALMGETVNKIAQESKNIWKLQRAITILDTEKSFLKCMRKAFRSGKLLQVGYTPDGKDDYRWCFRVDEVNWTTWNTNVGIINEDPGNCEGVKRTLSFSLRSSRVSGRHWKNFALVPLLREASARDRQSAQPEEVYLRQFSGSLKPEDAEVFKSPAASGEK
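TRPV1-expressing cells were cultured overnight at 35.5C and loaded with Fluo-8 calcium dye for 40 to 90 min at room temperature. After a 10 s baseline, compound was added and calcium influx was read kinetically for 3 min (ex 480/em 520 nm).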
TRPML1 blocker: qHTS for Inhibitors of the Human Mucolipin Transient Receptor Potential 1 (TRPML1); hit rate 0.02% among 390,000; Mucolipin-1 (Homo sapiens), Q9GZU1; AID 624415, 2012; TRPML1-inducible cells, Ca2+ dye fluorescence, FDSS; active compounds read low; inhibition of EC80 agonist-evoked calcium signal; activity change, negative = inhibition, % (no concentration beside the values); in the data active means activity change below about -50%; inconclusive means about -30% to -50%; inactive means above about -30%;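 note: stimulus is agonist 54-4 at its EC80 concentration; % is set by controls: 0 for no effect and ±100 for the full control effect; compound concentration not given in the record; the text of the record puts the active cut at -80%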
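Calcium fluorescence in TRPML1-DL cells induced overnight with Tet: a 110 s read after compound pin addition, then a 110 s antagonist read after challenge with 54-4 at 4 uM final (EC80).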
D2 potentiator: Beta-Arrestin HTS for Positive Allosteric Modulators of the Human D2 Dopamine Receptor: Potentiators; D(2) dopamine receptor (Homo sapiens), P14416; potentiation, % (no concentration beside the values); DiscoveRx D2 beta-arrestin cells, luminescence, 90 min; 100% = 57 uM dopamine signal; hit rate 0.23% among 360,000; active = potentiation of 50% or more; inconclusive = 30% to 50%; inactive = 30% or less;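 note: compound concentration not given in the record; tested on top of an EC20 dose of dopamine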
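PathHunter beta-arrestin assay in DiscoveRx D2 cells. Compounds were added with an EC20 of dopamine (50 nM final) for 90 min at 37 deg C. Luminescence was read 1 h after detection reagent, with 57 uM dopamine as the EC100 control.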
* marks the source's active call; other numbers are inactive results; ? = inconclusive; . = not tested or not shown; & = joins results of further samples.

Preview:
SMILES	TRPML1 agonist	CtBP-E1A blk	Six1-Eya2 blk	TRPV1 PAM	TRPML1 blocker	D2 potentiator
C[C@]12CC[C@@H]3c4ccc(OS(=O)(=O)O)cc4CC[C@H]3[C@@H]1CCC2=O	-1.0&-0.5	0&0	-1&2	-6&1	25&-12	2&-11
O=C(Nc1cc(Cl)ccc1Cl)C1Cc2ccccc2O/C1=N\O (stereo unspecified)	1.1	2	8	1	10	-6
C/C(=N\NC(=O)CSc1nc2ccccc2[nH]1)c1ccncc1	-0.1	3	-10	24	-9	-21
Cc1nnc(SCc2cnc(-c3ccc(C(C)C)cc3)s2)n1C	-0.3	8	3	9	9	3
COc1ccc(CCNC(=O)C2CCC(C(C)(C)C)CC2)cc1OC (stereo unspecified)	0.3	-5	7	-21	21	-9
O=C(Nc1nc2ccc(Cl)cc2s1)C1CC1	1.5	-12	0	.	-9	-13
O=C(Cc1ccc(Cl)cc1)Nc1ccccc1CO	-0.9	2	0	-12	?	-7
COc1ccc(/C=N/Nc2nnc(-c3ncc[nH]3)c3ccccc23)cc1	-1.0	-8	-10	-21	0	-9
C=CCn1cnc2scc(-c3ccc(C)cc3)c2c1=O	-0.8	9	10	22	-8	-19
COc1ccc(CCN2C(=O)c3ccccc3C2c2nnnn2-c2c(C)cccc2C)cc1OC (stereo unspecified)	-1.0	-3	10	.	.	.

The listing, from the start:
SMILES	TRPML1 agonist	CtBP-E1A blk	Six1-Eya2 blk	TRPV1 PAM	TRPML1 blocker	D2 potentiator
C[C@]12CC[C@@H]3c4ccc(OS(=O)(=O)O)cc4CC[C@H]3[C@@H]1CCC2=O	-1.0&-0.5	0&0	-1&2	-6&1	25&-12	2&-11
O=C(Nc1cc(Cl)ccc1Cl)C1Cc2ccccc2O/C1=N\O (stereo unspecified)	1.1	2	8	1	10	-6
C/C(=N\NC(=O)CSc1nc2ccccc2[nH]1)c1ccncc1	-0.1	3	-10	24	-9	-21
Cc1nnc(SCc2cnc(-c3ccc(C(C)C)cc3)s2)n1C	-0.3	8	3	9	9	3
COc1ccc(CCNC(=O)C2CCC(C(C)(C)C)CC2)cc1OC (stereo unspecified)	0.3	-5	7	-21	21	-9
O=C(Nc1nc2ccc(Cl)cc2s1)C1CC1	1.5	-12	0	.	-9	-13
O=C(Cc1ccc(Cl)cc1)Nc1ccccc1CO	-0.9	2	0	-12	?	-7
COc1ccc(/C=N/Nc2nnc(-c3ncc[nH]3)c3ccccc23)cc1	-1.0	-8	-10	-21	0	-9
C=CCn1cnc2scc(-c3ccc(C)cc3)c2c1=O	-0.8	9	10	22	-8	-19
COc1ccc(CCN2C(=O)c3ccccc3C2c2nnnn2-c2c(C)cccc2C)cc1OC (stereo unspecified)	-1.0	-3	10	.	.	.
CC(=O)N1CSCC1C(=O)N1CCN(c2ccc(N3CCOCC3)nn2)CC1 (stereo unspecified)	0.2	5	15	4	6	-4
C=CCOC(=O)C1=C[C@H](c2ccc(Br)cc2)[C@@H](CCCO)[C@H](OCC)O1	0.5	.	-1	2	10	18
CCOC(=O)C1CCN(C(=S)Nc2ccc(Cl)cc2C)CC1	-0.5	7	-2	3	-3	2
Cc1ccc(S(=O)(=O)N(C)C)cc1NC(=O)COC(=O)c1ccc(Cl)cc1	-1.0	2	1	-7	4	-5
Cc1cc(OC(C)C(=O)NCC2CCC(C(=O)O)CC2)c2c(C)c(C)c(=O)oc2c1 (stereo unspecified)	.	7	2	6	.	-2
CC(C)(C)c1cc(C(=O)NNC(=O)c2ccc(C(F)(F)F)cc2)no1	0.8	7	2	-29	6	-10
CNS(=O)(=O)c1ccc2c3c(cccc13)C(=O)N2	-0.4	0	10	-8	0	-27
COc1ccc(OCC(=O)Nc2ccc(OC)c(S(=O)(=O)N3CCCCC3)c2)cc1	0.6	-12	-26	4	9	-22
O=[N+]([O-])c1ccc(NCCNS(=O)(=O)c2ccccc2)cc1	-0.9	-8	-9	0	-10	-6
O=C(NCc1ccccc1)c1onc(CSc2ccncc2)c1C(=O)NCc1ccccc1	0.0	5	2	.	0	-18
COc1ccc(/C=C(\C#N)C(=O)OC2CCOC2=O)cc1 (stereo unspecified)	0.1	0	11	-6	11	-15
COc1ccc(CCN2CC(C(=O)NCCc3cnn(C)c3)CCC2=O)cc1 (stereo unspecified)	0.1	2	5	-2	-2	-2
COc1ccc(S(=O)(=O)N2CCN(CC(=O)c3c(N)n(C)c(=O)n(C)c3=O)CC2)cc1OC	-0.4	3	9	.	-14	-5
CCOc1ccc(CN(C(=O)c2ccco2)C2CCS(=O)(=O)C2)cc1 (stereo unspecified)	-0.2	0	6	19	2	-2
CCOc1ccc(-n2c(=O)[nH]cc(C(=O)Nc3ccc(OC)c(OC)c3)c2=O)cc1	0.7	0	-28	-4	-8	7
COc1ccc2c(CC(=O)OCC(=O)Nc3ccc4c(c3)OCO4)coc2c1	3.1	-3	-8	2	24	18
CC(C)n1[nH]c2ccccc2c1=O	-0.4	1	-7	.	.	7
C[C@H]1NC(=O)[C@@]2(C)[C@@H](c3ccccc3)[C@H]3COc4ccccc4[C@@H]3N2C1=O	-0.5	8	0	0	-24	2
N#Cc1nc(-c2ccccc2F)oc1NCCN1CCOCC1	-0.3	-2	-2	4	9	-4
Fc1ccc(COc2ccc(C(=S)N3CCCC3)cc2)cc1	2.7	-4	1	1	8	-4
C/C(=N\O)c1ccn(S(=O)(=O)c2ccc(Cl)cc2)c1	2.4	-17	-16	7	5	-7
CSc1ccccc1NC(=O)C1CC(c2ccccc2Cl)=NO1 (stereo unspecified)	-0.3	10	-12	-4	-6	-5
O=C(N/N=C/c1ccco1)C1CC1(c1ccccc1)c1ccccc1 (stereo unspecified)	-0.1	5	-11	?	-6	5
O=C(Cc1ccc(Cl)cc1)Nc1cccc2ncccc12	1.1	3	-1	-4	20	-11
CC(C)c1nc(C(=O)N2CCCC(CCC(=O)N(C)CCc3ccccn3)C2)cs1 (stereo unspecified)	0.2	.	-1	13	4	-5
COc1cccc(CN2CCN(C(c3ccccc3)c3ccccc3)CC2)c1O	11	-18	-19	-6	19	-17
COc1cc2oc(=O)ccc2c(OC)c1CC(O)C(C)(C)O (stereo unspecified)	0.2	1	5	-14	8	-3
CCN(CC)S(=O)(=O)c1ccc(CNC(=O)CN2C(=O)NC3(CCc4ccccc43)C2=O)cc1 (stereo unspecified)	0.0	-5	6	5	18	-8
COc1ccc(NC(=O)CN2C(=O)NC3(CCCCC3C)C2=O)cc1S(=O)(=O)N1CCOCC1 (stereo unspecified)	0.3	0	4	.	-6	4
COC(=O)C1=CN(C2CCCCC2)C=C(C(=O)OC)C1c1ccc2c(c1)OCO2	1.1	.	7	-8	-11	-7
CCCCCC(=O)OC(CN1CCCCC1)CN1CCCC1=O (stereo unspecified)	1.1	10	9	3	-15	-46
COc1ccc(C2=C(c3ccccc3)OC(OC)c3cc(F)ccc32)cn1 (stereo unspecified)	-0.3	-10	8	.	.	.
CCc1nnc(NC(=O)[C@@H](NC(=O)c2cc(OC)cc(OC)c2)C(C)C)s1	0.2	-19	-4	?	-7	-33
CC(OC(=O)c1ccccc1NS(=O)(=O)c1cccc(N)c1)C(=O)N(C)Cc1ccccc1 (stereo unspecified)	0.0	5	-7	0	-3	-11
O=C(COC(=O)CNC(=O)c1sc2ccccc2c1Cl)Nc1c(Cl)cc(Cl)cc1Cl	0.2	6	6	-3	-11	-1
CSc1ccccc1NC(=O)CN(C)CC(=O)Nc1ccccc1C(F)(F)F	-0.6	-7	6	-4	9	-3
Cn1cccc1/C=C1\SC(=Nc2ccc(O)cc2)NC1=O	0.5	-6	-19	-5	-2	-13
Cn1c(SCC(=O)Nc2cccnc2Cl)nnc1-c1ccco1	-0.3	6	-4	.	-5	-5
O=C(NC1(C(F)(F)F)N=C2SCCN2C1=O)c1ccccc1 (stereo unspecified)	0.0	-4	7	2	-1	-12
O=c1ccn([C@@H]2O[C@H](CNCc3ccccc3)[C@@H](O)[C@H]2O)c(=O)[nH]1	-0.1	-11	4	.	-2	0
Cc1cccc(NC(=O)C2Cc3ccccc3O/C2=N\O)c1 (stereo unspecified)	.	4	2	4	.	7
CSc1ncccc1C(=O)OCc1cccc([N+](=O)[O-])c1	0.3	-1	-6	3	6	1
C#Cc1ccc([C@@H]2C=C(C(=O)N3CCN(Cc4ccc5c(c4)OCO5)CC3)O[C@H](OCC)[C@H]2CCCO)cc1	0.2	?	-12	-12	-9	-9
CCOC(=O)C1(Cc2ccc(Cl)cc2)CCN(Cc2cnc(N)nc2)CC1	2.5	3	-2	-11	35	-13
COC(=O)[C@@H]1C[C@]2(Br)c3ccccc3N(S(=O)(=O)c3ccccc3)[C@@H]2N1C(=O)OC	-0.5	0	-1	.	7	-10
CC(C)(C)NC(=O)C1(C)CCC(=O)N1C1CC1 (stereo unspecified)	-0.2	4	3	.	.	-1
O=C(NC1CCS(=O)(=O)C1)C1CCCCN1S(=O)(=O)c1ccc(Cl)cc1 (stereo unspecified)	0.5	7	-1	10	4	-8
COc1ccc(OC)c(C=NN=Cc2cc(OC)ccc2OC)c1	0.9	0	2	.	-16	-11
Cc1nn(Cc2ccccc2Cl)c(Cl)c1/C=C/C(=O)OCC(=O)NC1CCS(=O)(=O)C1 (stereo unspecified)	2.9	.	9	-38	1	0
Cc1ccc(Nc2nc(-c3ccc(S(=O)(=O)N4CCOCC4)cc3)cs2)cc1Cl	-0.5	-5	10	4	-5	11
(next part)
SMILES	TRPML1 agonist	CtBP-E1A blk	Six1-Eya2 blk	TRPV1 PAM	TRPML1 blocker	D2 potentiator
CCOc1ccc(C2C(C#N)=C(N)Oc3cc(C)n(CCN4CCOCC4)c(=O)c32)cc1OCC (stereo unspecified)	-0.1	-1	8	16	-3	-8
Cc1cccc(OCc2nnc(SCc3nc4cc(C(F)(F)F)ccc4c(=O)[nH]3)o2)c1	-0.5	12	3	7	-2	2
CC(NC(=O)c1cc(COc2cccc(C(F)(F)F)c2)on1)c1nccs1 (stereo unspecified)	0.0	9	5	-7	-11	-10
CNC(=S)NNC(=O)c1cc(-c2cccnc2)nc2ccccc12	-0.6	-1	-1	25	-11	-7
Cc1ncc(S(=O)(=O)c2ccccc2)c(-c2ccc(Cl)cc2Cl)n1	-0.3	7	10	5	6	6
Cc1cc(OCC(=O)NCCN2CCOCC2)cc(C)c1Cl	0.2	-21	-2	0	12	-6
COc1ccc(Br)cc1CN1CCC(N2CCCC2)CC1	-0.5	11	3	-16	-1	-2
CNc1c(NC(=O)COc2ccc(Cl)cc2)c(=O)oc2ccccc12	0.0	-1	-1	-7	5	-13
COc1ccc(-c2ccc(C(=O)NCC3CCOCC3)c3occc23)c(C)c1	-1.0	0	-6	.	49	-14

Screening data from PubChem BioAssay.
